Bioassay records from PubChem BioAssay.
TRPML1 blocker = blocks the human TRPML1 channel | Q9GZU1 | TRPML1-inducible cells, Ca2+ dye fluorescence, FDSS; stronger effect = lower value; inhibition of EC80 agonist-evoked calcium signal | activity change, negative = inhibition, % (concentration not given with the values) | 390,000 tested, 0.02% active; in the data active means activity change below about -50%; inconclusive means about -30% to -50%; inactive means above about -30%;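 also: stimulus is agonist 54-4 at its EC80 concentration; % is scaled to controls: 0 for no effect and ±100 for the full control effect; compound concentration not given in the record; the text of the record puts the active cut at -80%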
Target sequence (Q9GZU1 whole entry, looked up): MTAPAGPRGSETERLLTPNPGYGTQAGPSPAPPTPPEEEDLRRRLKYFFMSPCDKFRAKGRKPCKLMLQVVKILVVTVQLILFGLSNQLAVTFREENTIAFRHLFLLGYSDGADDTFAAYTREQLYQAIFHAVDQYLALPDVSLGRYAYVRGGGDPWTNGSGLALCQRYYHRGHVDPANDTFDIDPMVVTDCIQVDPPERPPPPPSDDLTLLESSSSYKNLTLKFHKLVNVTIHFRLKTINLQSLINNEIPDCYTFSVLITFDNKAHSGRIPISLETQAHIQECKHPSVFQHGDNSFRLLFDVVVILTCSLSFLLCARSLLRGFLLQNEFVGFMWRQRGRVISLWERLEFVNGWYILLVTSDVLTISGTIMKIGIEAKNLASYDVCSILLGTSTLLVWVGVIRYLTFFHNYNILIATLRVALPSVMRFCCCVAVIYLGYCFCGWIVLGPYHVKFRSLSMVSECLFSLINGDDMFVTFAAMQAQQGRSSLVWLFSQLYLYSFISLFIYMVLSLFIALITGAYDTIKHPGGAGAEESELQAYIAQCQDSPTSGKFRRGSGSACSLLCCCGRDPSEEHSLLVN
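TRPML1-DL cells, Tet-induced overnight (~16 h, 37 °C) at 1,500 cells/well, were loaded with Ca8 no-wash dye plus quencher for 45-90 min at room temperature. Compounds were pinned during FDSS kinetic reading; agonist 54-4 at EC80 (4 uM final) then added.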
TRPV1 potentiator = human TRPV1 potentiation. TRPV1-expressing cells, Fluo-8 calcium influx, capsaicin EC20 potentiation; host cell line not named in the record; control for the full effect not named in the record. potentiation, % at 8.33 µM. 320,000 tested, 0.02% active; active means potentiation above 80%; inconclusive means 30% to 80%; inactive means below 30%; also: 0% is about no effect
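Cells expressing TRPV1 were dye-loaded with Fluo-8 and read kinetically: 10 s baseline, 3 min after compound (agonist portion), then 2 min after EC20 capsaicin (allosteric enhancer portion). Calcium-bound dye fluorescence at 480/520 nm.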
Sfp inh = Sfp phosphopantetheinyl transferase inhibition; 310,000 tested, 3.5% active; Potency, µM, inactives show max response, negative = inhibition, actives largely listed as inhibitors; Q9F4F7; Biochemical Sfp PPTase activity, qHTS; active = well fitted inhibition curve with a large enough effect; inconclusive = small, poorly fitted or top-dose-only effect, or another doubt; inactive = no such curve, though single readings can be large or run the other way;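 also: the enzyme is Sfp with the accession as filed and its product quenches rhodamine fluorescence; potency is read from the fitted curve at half-maximal effect; 0% = enzyme reaction without inhibitor and -100% = no enzyme wells; top concentration of the series not given in the record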
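Buffer: 50 mM Hepes-Na pH 7.6, 10 mM MgCl2, 0.01% Nonidet P-40, 0.01% BSA. Enzyme 15 nM, pre-exposed to compound 15 min; substrates then added and fluorescence change tracked over 30 min.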
ClpP mod = qHTS Assay for Activators of ClpP; purified B. subtilis ClpP, FRET peptide cleavage, 20 min; ATP-dependent Clp protease proteolytic subunit (Bacillus subtilis (strain 168)), P80244; AID 651965, 2013; Potency, µM (highest dose often 57.5 µM), without a hit: at the highest dose activity change, negative = active; 340,000 tested, 1.9% active; active = well fitted falling curve with a large enough effect; inconclusive = small, poorly fitted or top-dose-only effect; inactive = no such curve, though single readings can be large or run the other way; also: potency is read from the fitted curve at half-maximal effect; the source files actives as falling curves though it sought activators and does not explain the sign; nearly all actives have a fitted effect of over 65% in size; many hits overshoot -100%
Target sequence (P80244 whole entry, looked up): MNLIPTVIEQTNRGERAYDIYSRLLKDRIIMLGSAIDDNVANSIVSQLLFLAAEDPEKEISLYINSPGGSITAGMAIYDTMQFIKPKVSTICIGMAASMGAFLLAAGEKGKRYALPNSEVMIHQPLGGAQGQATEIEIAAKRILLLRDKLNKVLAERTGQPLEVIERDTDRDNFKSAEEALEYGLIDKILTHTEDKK
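ClpP 10 microg/mL final, pH 8 Tris/KCl buffer with BSA, glycerol, Tween-20; compound pinned in; FRET-FV substrate; RT 20 min; Ex320/Em430; ΔFRET vs ADEP 5.8 microM, DMSO, no enzyme.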
gsp agonist = agonists of gsp mutant (McCune-Albright syndrome); gsp mutant cells, cAMP HTRF, 30 min; control for the full effect not named in the record; 340,000 tested, 0.13% active; AID 624287; Potency, µM (top dose mostly 76.9 µM), without a hit: top-dose activation (cAMP increase), hits mostly activators; active = well fitted activation curve with a large enough effect; inconclusive = small, poorly fitted or top-dose-only effect, or another doubt; inactive = no such curve, though single readings can be large or run the other way; cell line not stated here;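 also: phosphodiesterase inhibitor Ro 20-1724 added with compounds to block cAMP breakdown; potency is read from the fitted curve at half-maximal effect; nearly all actives have a fitted effect of over 60% in size; about a fifth of the inactives were tested at one dose only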
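Cells in DMEM/10% FBS with G418 were pretreated with compounds in DMSO plus […] (300 uM stock) for 30 min at 37C. cAMP was measured by HTRF (cAMP-d2 plus anti-cAMP antibody-K) after 30 min at room temperature.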
Menin-MLL FL inh = inhibitors of human menin-MLL interaction, wild-type MLL peptide | Fluorescence polarization, fluorescein-MLL peptide displacement from menin | 290,000 tested, under 10 active | FP activity change, % at 61.4 µM; inconclusive = falling polarisation curve, or a change in total fluorescence; inactive = total fluorescence flat and polarisation flat or rising; no compound was filed as active; the % refers to the polarisation; negative = inhibition;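 also: % of control where 0% means no effect; inhibitors lower the polarisation; unlabelled MLL peptide was the positive control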
gsp antagonist = antagonists of gsp mutant (McCune-Albright syndrome); gsp-mutant cells, cAMP HTRF, 30 min; control for the full effect not named in the record; Potency, µM (titrated, usually from 76.9 µM), for the others: at the highest dose activity change, negative = inhibition, usual class: inhibitors; 340,000 tested, 0.4% active; active = falling curve of any shape with a large fitted effect; inconclusive = falling curve, mostly with a smaller effect; inactive = flat or rising curve; cell line not stated here;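 also: intracellular cAMP measured with PDE inhibitor Ro 20-1724 present during compound exposure; potency is read from the fitted curve at half-maximal effect; % is scaled to controls: 0 for no effect and ±100 for the full control effect; nearly all actives have a fitted effect of over 65% in size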
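Cells, 2000/well, grown 16–24 h in DMEM 10% FBS with 0.5 mg/ml G418, then compounds plus […] (300 uM addition stock), 30 min at 37C. cAMP read by HTRF (cAMP-d2 and anti-cAMP antibody-K in lysis buffer) after 30 min RT.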
* marks the source's active call; other numbers are inactive results; ? = inconclusive; / = no result given; [ ] = another dose, or the depositor's remark. Rows are unselected; overall some 4.9% were active at least once.

SMILES | TRPML1 blocker | TRPV1 potentiator | Sfp inh | ClpP mod | gsp agonist | Menin-MLL FL inh | gsp antagonist
Cc1ccc2[nH]c(O)c(N=Nc3ccccc3[N+](=O)[O-])c2c1 | 14 | / | / | 0.2% | 2% | / | -8%
COc1ccc(C(=O)Nc2ccccc2C(=O)Nc2ccccc2C(=O)O)cc1 | 5 | 1 | 4% | / | 0% | 1.8 | ?
Nc1nc(C(c2ccccc2)c2ccccc2)cs1 | 2 | -11 | 22% | / | -8%[15.4 µM] | 2.0 | -1%
O=C(NNC(=O)c1cccnc1)Nc1cccc2ccccc12 | 21 | -4 | 14% | -15% | -4% | 12 | 6%
CC(=O)c1cc2c(cc1NS(=O)(=O)c1cccc(C(=O)O)c1)OCO2 | -18 | 2 | -5% | / | 8% | -1.3 | -6%
O=C(Nc1ccccc1C(=O)N1CCOCC1)C1CC(=O)N(C2CCCC2)C1 (centres undefined) | -4 | -3 | 10% | -2.2% | -31%[inhibitor] | 2.4 | 4%
CCC1CCCCN1C(=O)CSc1nc(N)cc(N)n1 (centres undefined) | -2 | 1 | 20% | -2.2% | 12% | 0.3 | 5%
COCCOC(=O)C1=C(C)N=c2s/c(=C\c3cccs3)c(=O)n2C1c1cccs1 (centres undefined) | -7 | -4 | -18% | 0.2% | -23% | ? | -18%
C[C@H](NC(=O)c1ccc(C(C)(C)C)cc1)C(=O)N1CCN(C/C=C/c2ccccc2)CC1 | -1 | / | / | 2.1% | ? | / | -6%
FC(F)(F)c1cc(Oc2ccccc2)ncc1-c1nnc(-c2ccccc2Cl)o1 | 26 | / | -8% | ? | 20% | 6.4 | -8%
CN(C)C(/C=C/Nc1ccc(F)cc1F)=C(C#N)C#N | 4 | -5 | 14% | -0.5% | -40%[inhibitor] | 0.6 | 1%
Cc1cc(/N=C/N(C)C)on1 | 10 | 1 | 19% | 1.5% | 3% | 1.6 | 10%
CCOc1cccc(-c2nnc(SCC(=O)Nc3ccc(OC)c(OC)c3)n2N)c1 | 18 | -3 | -12% | -2.4% | 3% | 0.1 | 0%
CCc1ccc(NC(=O)N(CCN2CCOCC2)C2CCN(C(C)=O)CC2)cc1 | -9 | 4 | 13% | -1.2% | -3% | 0.2 | 1%
O=c1c(-c2ccc(O)cc2)coc2cc(OC3OC(CO)C(O)C(O)C3O)ccc12 (centres undefined) | 6 | -4 | 1% | -1.4% | -24% | 2.1 | 17%
Cc1cc(C)cc(NC(=O)CN2CCC(NC(=O)Cc3ccccc3)CC2)c1 | 1 | 19 | 1% | 0.9% | -44%[inhibitor] | 0.6 | -10%
COc1ccc(CCN2C(=O)N[C@@H](CCC(=O)O)C2=O)cc1 | -5 | 3 | 2% | -4.3% | -19% | 1.3 | 6%
COc1ccc(CNC(=O)CN(Cc2ccc(Cl)cc2)C(=O)c2csnn2)cc1 | -21 | -3 | -7% | / | 0% | 0.1 | -8%
CNC(=O)c1cc2cc(OC)ccc2n1CCN(Cc1ccccc1)Cc1ccccc1 | -2 | -15 | 13% | 22µM* | -1% | 2.1 | -8%
COc1ccc(N2CCN(C(C)C(=O)N3CC(C)OC(C)C3)CC2)cc1 (centres undefined) | 27 | -10 | ? | / | 2%[15.4 µM] | -0.9 | -2%
COc1ccc(C2c3ccc4ccccc4c3Oc3ncn(CCO)c(=N)c32)cc1 (centres undefined) | -6 | -6 | -26% | -1.7% | ? | -7.3 | 2%
Cc1ccc(CS(=O)(=O)c2nc3c(c(N(C)C)n2)CCCC3)cc1 | -13 | 3 | 21% | -0.3% | 23%[15.4 µM] | -4.7 | -7%
CN(CC(=O)N(C)CC(=O)Nc1c(Cl)cccc1Cl)Cc1ccccc1F | 4 | / | / | -2.4% | 16% | / | 2%
Cc1c(C(=O)N2CCN(c3ccccn3)CC2)sc2ncnc(N3CCOCC3)c12 | 25 | 2 | 15% | -3.4% | -4% | -1.2 | 4%
CCOC(=O)c1ccc(NC(=S)Nc2ccccn2)cc1 | 18 | 7 | -22% | -3.1% | 12% | -0.1 | -1%

Structural class: those above containing a Cl atom
SMILES | TRPML1 blocker | TRPV1 potentiator | Sfp inh | ClpP mod | gsp agonist | Menin-MLL FL inh | gsp antagonist
FC(F)(F)c1cc(Oc2ccccc2)ncc1-c1nnc(-c2ccccc2Cl)o1 | 26 | / | -8% | ? | 20% | 6.4 | -8%
COc1ccc(CNC(=O)CN(Cc2ccc(Cl)cc2)C(=O)c2csnn2)cc1 | -21 | -3 | -7% | / | 0% | 0.1 | -8%
CN(CC(=O)N(C)CC(=O)Nc1c(Cl)cccc1Cl)Cc1ccccc1F | 4 | / | / | -2.4% | 16% | / | 2%

(next part)
SMILES | TRPML1 blocker | TRPV1 potentiator | Sfp inh | ClpP mod | gsp agonist | Menin-MLL FL inh | gsp antagonist
Cc1c(C)c2cc(Cl)c(OCC(=O)NC3CC(C)(C)NC(C)(C)C3)cc2oc1=O | 3 | 29 | -12% | 3.3% | 24% | / | 17%
CC(=O)Nc1ccc(NS(=O)(=O)c2ccc3c(c2)n(C)c(=O)n3C)cc1 | 5 | -6 | 8% | -21% | 0%[15.4 µM] | -0.5 | 10%
Brc1ccc(-c2nc(N/N=C/c3cccnc3)c3ccccc3n2)cc1 | -15 | 5 | ? | -3.4% | -29% | ? | -15%
COc1ccc(C2/C(=C(/O)c3ccc4c(c3)CC(C)O4)C(=O)C(=O)N2CCCn2ccnc2)cc1 (centres undefined) | -5 | 7 | 14% | 1.4% | ? | 3.2 | 21%
CC(=O)c1ccc(OCC(=O)N(CCC2=CCCCC2)c2c(N)n(Cc3ccccc3)c(=O)[nH]c2=O)cc1 | 2 | 12 | / | -5.3% | 6%[15.4 µM] | / | -9%
CCc1nnc(NC(=O)CSc2ncc(-c3ccccc3)n2C)s1 | -2 | -4 | 6% | 1.5% | -11% | -1.4 | -19%
O=C(CSc1nnc(CNc2ccc(F)cc2)n1Cc1ccccc1)NCc1ccco1 | -7 | 6 | 7% | 0.0% | 0% | -2.7 | -23%
CC(OC(=O)c1ccc([N+](=O)[O-])s1)C(=O)Nc1ncc(Cl)cc1Cl (centres undefined) | 8 | -10 | 9% | -0.7% | 13% | 3.9 | 4%
COCCCNc1nc2c(c(=O)n(Cc3ccc(OC)cc3)c(=O)n2C)n1C | / | -10 | 10% | -0.6% | 31% | 4.8 | 6%
Clc1cccc(Cl)c1CO/N=C/c1c(-c2ccccc2)nc2n1CCS2 | -5 | / | -10% | 25µM* | -8% | -1.2 | -13%
COc1ccc(OC)c(NC(=O)CNC(=O)Cn2cnc3sc(C)cc3c2=O)c1 | -2 | -12 | 1% | -1.7% | ? | -3.4 | 6%
Cc1ccc(C(=O)Nc2nc(-c3ccc([N+](=O)[O-])cc3)cs2)o1 | -9 | -5 | -3% | -3.2% | 9% | -0.3 | 22%
Cc1cccc2[nH]c3c(N4CC=C(c5ccc(F)cc5)CC4)ncnc3c12 | 1 | / | 11% | -1.7% | -5%[15.4 µM] | 8.5 | ?
CS(=O)(=O)c1ccc(C(=O)OCC(=O)NNC(=O)COc2ccc(Cl)cc2)cc1 | -8 | 2 | / | -3.0% | -15% | / | -6%
O=C(Cn1c(CC(=O)N2CCCC2)nc2ccccc21)NCc1ccccc1 | 5 | -2 | 14% | -1.8% | -6% | 3.0 | -8%
FC(F)(F)c1ccc(Oc2ccc(Cl)cc2Br)nc1 | -10 | 12 | -3% | / | 7%[15.4 µM] | 3.3 | 2%
CCn1c(SCc2nnc(-c3ccccc3)o2)nnc1-c1ccc(S(=O)(=O)N2CCCC2)cc1 | 6 | -7 | 15% | -0.8% | -25% | -1.7 | -15%
O=C(Nc1nnc(C2CC2)s1)c1cc(S(=O)(=O)N2CCCCC2)ccc1N1CCOCC1 | 16 | -2 | 4% | -2.0% | 16% | 1.8 | -13%
CC1CN(Cc2c(O)ccc3c(=O)c(-c4ccccc4)coc23)CC(C)O1 (centres undefined) | -22 | 5 | 13% | / | 8%[15.4 µM] | 0.3 | -10%
CC(=O)c1ccc(NS(=O)(=O)c2ccc(N)cc2)cc1 | -12 | 14 | 12% | / | -5%[15.4 µM] | -0.2 | /
O=c1cc(CSc2ccc(Cl)cc2)nc(-c2ccccc2)[nH]1 | 21 | 12 | 19% | / | 1%[15.4 µM] | 1.6 | -1%
O=C(O)COc1ccc(Br)cc1/C=N\Nc1ccccn1 | 1 | 2 | -83% | / | -32%[inhibitor] | -0.7 | 5%
COc1ccc(/C(C)=N/NC(=O)c2nnn(-c3nonc3N)c2-c2cccs2)cc1 | 2 | -5 | 16% | 3.4% | -24% | / | -6%
CCOc1ccc2nc(NC(=O)COC)sc2c1 | 18 | -5 | 13% | ? | -7% | 0.7 | -1%
CC(C)c1c(C(=O)N/N=C/c2ccccc2C(=O)O)nnn1-c1nonc1N | -17 | -12 | 22% | 0.1% | 22% | 0.3 | ?
CCN(CC(=O)NCc1ccc(F)cc1)C(=O)Cc1c(F)cccc1Cl | -4 | 10 | 7% | / | ? | 5.8 | 8%
COc1ccc(NC(=O)C(C)N(C)Cc2ccc3ccccc3c2)cc1 (centres undefined) | 24 | -14 | -15% | / | -3% | 2.1 | -19%

Just gsp agonist, Menin-MLL FL inh and TRPV1 potentiator (4 entries from above):
smiles,gsp agonist,Menin-MLL FL inh,TRPV1 potentiator
O=C(CSc1nnc(CNc2ccc(F)cc2)n1Cc1ccccc1)NCc1ccco1,0%,-2.7,6
COCCCNc1nc2c(c(=O)n(Cc3ccc(OC)cc3)c(=O)n2C)n1C,31%,4.8,-10
CC(=O)c1ccc(OCC(=O)N(CCC2=CCCCC2)c2c(N)n(Cc3ccccc3)c(=O)[nH]c2=O)cc1,6%[15.4 µM],/,12
Clc1cccc(Cl)c1CO/N=C/c1c(-c2ccccc2)nc2n1CCS2,-8%,-1.2,/
